# Arbovirus inh – antivirals against arbovirus infection; arbovirus infection cell-based antiviral screen; AID 1251; inhibition, % at 10 µM; 200,000 compounds, 0.37% hits;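 active means inhibition from about 30%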;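 further: bluetongue infection of BSR cells; cell survival read as ATP light after 72 h; 0% = infected wells without compound and 100% = uninfected wells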
# RecA splice inh – Mtb RecA intein splicing inhibition | P9WHJ3 | cell-free RecA intein splicing, fluorescence | inhibition, %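 (about 9 µM by stock and volumes)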 | 290,000 compounds, 0.75% hits; in the data active means inhibition above about 30%; inconclusive means no clear call, values can overlap the other calls;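 further: 0% = vehicle wells and 100% = reference inhibitor control wells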
# Target sequence (P9WHJ3 whole entry, looked up, canonical isoform): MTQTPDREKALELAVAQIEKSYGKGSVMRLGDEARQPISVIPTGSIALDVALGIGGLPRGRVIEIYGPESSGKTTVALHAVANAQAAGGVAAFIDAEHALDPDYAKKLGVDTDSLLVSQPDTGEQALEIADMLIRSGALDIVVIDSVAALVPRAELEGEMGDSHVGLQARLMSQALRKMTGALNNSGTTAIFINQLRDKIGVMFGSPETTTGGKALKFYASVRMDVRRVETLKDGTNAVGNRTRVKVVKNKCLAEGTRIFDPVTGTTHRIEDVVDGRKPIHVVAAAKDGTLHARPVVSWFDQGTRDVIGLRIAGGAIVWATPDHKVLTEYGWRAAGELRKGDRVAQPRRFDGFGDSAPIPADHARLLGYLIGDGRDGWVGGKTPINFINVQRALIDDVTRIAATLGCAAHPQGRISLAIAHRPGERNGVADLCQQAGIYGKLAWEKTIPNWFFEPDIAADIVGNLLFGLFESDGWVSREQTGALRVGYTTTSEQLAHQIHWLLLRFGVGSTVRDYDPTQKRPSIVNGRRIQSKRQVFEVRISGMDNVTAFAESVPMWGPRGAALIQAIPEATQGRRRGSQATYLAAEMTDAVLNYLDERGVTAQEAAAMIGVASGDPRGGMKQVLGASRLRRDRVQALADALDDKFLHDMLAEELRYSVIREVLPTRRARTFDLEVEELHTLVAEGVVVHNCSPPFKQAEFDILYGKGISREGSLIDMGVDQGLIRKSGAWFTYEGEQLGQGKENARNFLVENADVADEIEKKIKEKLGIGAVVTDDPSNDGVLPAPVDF
# YopH PTP inh – YopH (Yersinia) phosphatase inhibition. fluorescence Ex485/Em525. inhibition, %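 (about 10 µM by stock and volumes)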. 140,000 compounds, 0.16% hits. AID 898;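 active means inhibition of 50% or more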;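 further: controls were vehicle for no effect and minimum signal wells for full effect; inactives centre near -20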
# Mtb H37Rv – M. tuberculosis H37Rv growth inhibitors, H37Rv strain (AID 1626); 220,000 compounds, 0.95% hits; M. tuberculosis H37Rv growth inhibition; higher % means a stronger effect; inhibition, % at 10 µM; hits with a dose series show IC50 in µM;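 active means confirmed in a dose series; inconclusive means inhibition above 80% but not taken into the dose series; inactive means below 80% or under 30% at every dose of the series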;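 further: bacteria incubated seven days before Alamar blue readout; 0% = bacteria only wells and 100% = bacteria with antibiotic wells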
# Mtb betalactam – beta-lactam sensitization of Mtb H37Rv; 330,000 compounds, 0.27% hits; inhibition, % at 25 µM; M. tuberculosis H37Rv growth with meropenem, percent inhibition; hits of this screen are not shown here; AID 434955;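 active means about 74% or more and at least 40 points above the plate without the antibiotic, then above 30% in a dose series; inconclusive means first-round hits that could not be retested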;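 further: growth measured after seven days incubation then overnight dye step; 0% = bacteria only wells and 100% = bacteria with antibiotic; twin plates without the antibiotic show which effects depend on it; some results filed as inactive read as strong as hits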
# Arbovirus inh repeat – second read-out of Arbovirus inh, no call of its own (marks repeat the call); inhibition, %; measured here: 10K subset replicate screen; many hits read low in the repeat;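 first of two repeat runs on a subset; 0% = infected and 100% = uninfected wells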
# Starred values were filed as active, the others as inactive; i = inactive; ? = inconclusive; / = not tested or not shown; & = joins results of further samples. A portion of the library (hit frequency here may not be typical).
SMILES,Arbovirus inh,RecA splice inh,YopH PTP inh,Mtb H37Rv,Mtb betalactam,others
Cc1ccc(NC(=O)C(C)c2cccc(C(=O)c3ccccc3)c2)cc1 (stereo unspecified),-20.1,11.4,-10.0,3.9%,10.4,
COC(=O)c1cc(=O)nc2sc3cc(OC)ccc3n12,4.5,-0.3,-0.9,-8.4%,1.5,
O=C(c1ccccc1C(F)(F)F)N1CCN(S(=O)(=O)c2ccccc2)CC1,6.5,-0.1,-20.5,-6.4%,-2.8,
CCCOC(=O)CSc1nnc(-c2ccccc2Cl)o1,2.4,0.9,-31.8,42.3%,94.5,
CN(C)CCCN1c2ccc([N+](=O)[O-])cc2CCc2cc([N+](=O)[O-])ccc21,/,-1.9,/,-1.2%,-8.2,
CSCCC(NS(=O)(=O)c1ccccc1F)C(=O)N1CC=C(c2ccccc2)CC1 (stereo unspecified),/,-0.6,/,/,-2.5,
c1ccc(CCc2nn3c(Cc4ccccc4)nnc3s2)cc1,-9.8,2.2,-18.9,0.3%,3.3,
CN(CC(=O)Nc1ccccc1C(F)(F)F)C(=O)CC1OC(=O)c2ccccc21 (stereo unspecified),/,1.9,/,/,-14.0,
COc1ccc(C(=O)Nc2ccc(OCc3ccccc3)cc2)cc1[N+](=O)[O-],3.6,-1.5,-26.6,9.4%,2.5,
COc1ccc(NC(=O)Cn2nnc(C(=O)NCc3cccs3)c2N)cc1Cl,/,-0.2,/,/,9.6,
O=C(CCN1C(=O)COc2ccccc21)NCCCN1CCN(c2ccc(F)cc2)CC1,0.7,-1.2,-9.2,1.3%,0.7,
Cc1sc2ncnc(N3CCC(C(=O)NNC(=O)c4ccc(F)cc4)CC3)c2c1C,/,1.6,/,/,7.2,
COc1ccc(N2C(=O)S[C@@H]3CS(=O)(=O)C[C@@H]32)cc1,-2.9,1.0,-24.5,-4.5%,-6.0,
O=C(CCN1C(=O)c2ccccc2S1(=O)=O)Nc1ccc(C(=O)O)cc1,/,-1.6,/,/,-4.4,
CC1CC(C)CN(C(=O)C2CCN(S(=O)(=O)c3c(Cl)cccc3Cl)CC2)C1 (stereo unspecified),/,3.0,/,/,-0.8,
CCc1cccc(N=c2c([N+](=O)[O-])nn(-c3ccc(Cl)cc3)n2O)c1,-3.0,1.1,-18.3,79.5%,100.2,
CC(/C=C/c1cccc([N+](=O)[O-])c1)=N\NC(=O)c1ccncc1,-14.6,1.5,-11.3,?,98.5,
O=C(CCN1C(=O)c2ccccc2C1=O)N(CCO)Cc1ccccc1,8.7,0.4,-29.6,/,/,
CC1SCC(=O)N(CC(=O)NC2CCCCC2)C1=O (stereo unspecified),-3.9,-0.4,/,4.1%,-1.3,
CC(=O)Oc1ccc(-c2nc3ccccc3c(=O)o2)cc1,/,10.9,/,/,18.5,
O=C(NCc1ccccc1)C(=O)NCC1OCCN1C(=O)c1cccs1 (stereo unspecified),-2.9,2.3,-0.7,-4.3%,-5.3,
CCOc1ccc2oc(C(=O)Nc3ccc4c(c3)OCO4)c(C)c2c1,/,-2.1,/,/,91.9,
CCOC(=O)c1cc(-c2cccnc2)nn1-c1ccccc1,8.8,2.8,/,4.4%,1.2,
CCOc1ccc(-c2cc(C(=O)NN3CCN(C)CC3)c3cc(Cl)ccc3n2)cc1,-2.3,-3.9,-17.6,18.7%,-0.1,
O=C(COC(=O)C1CC(=O)N(Cc2ccco2)C1)c1ccc(OC(=O)c2ccccc2)cc1 (stereo unspecified),4.5,18.1,-23.3,-0.7%,24.2,
O=C(O)CC(c1ccc(Cl)cc1)n1cccc1 (stereo unspecified),7.9,-8.3,-22.7,-6.0%,-1.6,
CCOC(=O)CSc1nnc(NC(=O)CN2CCCCC2)s1,/,0.6,/,/,4.5,
Nc1c(C(=O)Nc2ccc3c(c2)OCCO3)nnn1Cc1cccc(Cl)c1,/,2.3,/,/,2.3,
CCOc1ccc(C(CC(=O)O)NC(=O)Cc2ccc(Cl)cc2)cc1 (stereo unspecified),/,-0.6,/,/,-5.5,
NC(=O)c1ccccc1NC(=O)c1cccc(C(=O)Nc2ccccc2C(N)=O)n1,/,0.7,/,/,-6.2,
CC12CC3CC(C)(C1)CC(CN)(C3)C2,10.4,-3.9,1.1,-6.9%,-16.8,
COCCCN(CC(=O)O)S(=O)(=O)c1ccccc1,7.1,1.4,/,0.4%,0.6,
O=c1cccc2n1CC1CC2CN(c2nc(N3CCCCC3)nc(N3CCCCC3)n2)C1 (stereo unspecified),-7.6,1.1,/,3.0%,5.7,
CC(=O)C(C)Oc1ccc2c3c(c(=O)oc2c1)CCCCC3 (stereo unspecified),-3.8,-0.6,3.2,2.4%,1.4,
COc1ccccc1N1CCN(Cc2cn[nH]c2-c2ccc(F)cc2)CC1,/,0.5,/,-0.4%,-2.0,
O=C(N/N=C/c1c[nH]c2ccccc12)c1ccc([N+](=O)[O-])cc1Cl,/,-0.1,/,/,-8.0,
O=C(NCC(c1cccnc1)N1CCN(c2ccccc2)CC1)C1CCCCC1 (stereo unspecified),-2.8,1.3,-7.3,6.9%,3.7,
COC(=O)c1cc(/C=C/c2ccccc2)on1,4.7,1.6,-33.6,1.33µM*,96.5,
CN(C)CCCN=c1cc(-c2ccccc2)oc2ccc(Cl)cc12,-34.7,/,/,-0.5%,/,
CN1CCN(c2ccc(Cl)cc2NC(=O)/C=C/c2cccc(F)c2)CC1,-30.7,3.7,/,29.6%,36.6,
C=CCOc1ccc(C=Nc2ccc(C)c(Cl)c2)c(O)c1,-3.9,0.2,-24.0,?,87.9,
CC1Oc2ccccc2N(CC(=O)NC2CCCC2)C1=O (stereo unspecified),/,1.1,/,/,5.6,
CCc1cccc(C)c1N=Cc1c(O)c2ccccc2oc1=O,/,0.7,/,/,-1.8,
CN(c1ccccc1C(=O)Nc1ccc(S(=O)(=O)N2CCCCC2)cc1)S(C)(=O)=O,4.5,2.3,-32.5,0.8%,8.8,
COC(=O)[C@@H]1C[C@@H]2CC[C@@H](O)C[C@@H]2N1Cc1ccc(C(F)(F)F)cc1,/,-1.9,/,-8.1%,-4.4,
Cn1c(=O)cc(OCCCC(=O)N2CCC3(CC2)OCCO3)c2ccccc21,1.4,/,-14.7,-9.9%,-3.9,
N=c1n(CCO)c2ccccc2n1CCOc1ccc(Cl)cc1Cl,-28.3,3.9,-24.0,16.4%,69.7,Arbovirus inh repeat=-30.3
O=c1c2ccccc2[nH]c2ccc(O)cc12,/,i,/,/,1.8,

# Already shown: an excerpt of the list.
SMILES,Arbovirus inh,RecA splice inh,YopH PTP inh,Mtb H37Rv,Mtb betalactam,others
CN1CCN(c2ccc(Cl)cc2NC(=O)/C=C/c2cccc(F)c2)CC1,-30.7,3.7,/,29.6%,36.6,
C=CCOc1ccc(C=Nc2ccc(C)c(Cl)c2)c(O)c1,-3.9,0.2,-24.0,?,87.9,
CC1Oc2ccccc2N(CC(=O)NC2CCCC2)C1=O (stereo unspecified),/,1.1,/,/,5.6,
CCc1cccc(C)c1N=Cc1c(O)c2ccccc2oc1=O,/,0.7,/,/,-1.8,
CN(c1ccccc1C(=O)Nc1ccc(S(=O)(=O)N2CCCCC2)cc1)S(C)(=O)=O,4.5,2.3,-32.5,0.8%,8.8,

# Next compounds
SMILES,Arbovirus inh,RecA splice inh,YopH PTP inh,Mtb H37Rv,Mtb betalactam,others
Cc1ccccc1OCCCC(=O)Nc1ccc(Br)cc1,-0.1,4.5,-32.4,-2.3%,-0.6,
CCOc1cc(N2CCOCC2)c(OCC)cc1NC(=O)c1ccc(S(=O)(=O)N(C)C)cc1,/,-2.5,/,-4.8%,-11.4,
COC(=O)C(CC(C(=O)OC)C(=O)OC)C(=O)OC,-0.8,0.4,-13.3,-5.6%,17.9,
Cc1c(CCC(=O)N[C@@H](C)C(=O)O)c(=O)oc2c(C)c3oc4c(c3cc12)CCCC4,/,-4.9,/,/,2.6,
COc1ccc(N(CC(=O)NCc2ccccc2OC)S(=O)(=O)c2ccccc2)cc1,/,3.5,/,/,4.9,
COc1cc2ccccc2cc1C(=O)Nc1ccc(C)cn1,/,0.5,/,/,26.2,
CC1(C)CC(=O)C=C(NC2CCCCC2)C1,/,0.2,/,/,-13.8,
O=c1[nH]cnc2c1nc(NCc1ccccc1)n2C1O[C@@H](CO)[C@H](O)[C@@H]1O (stereo partly specified),/,-2.0,/,/,-4.3,
CCCc1[nH][nH]c(=O)c1C(c1ccc(Cl)cc1)C(C#N)C#N (stereo unspecified),-9.8,69.9*,29.7,11.4%,5.6,
C#CCOC(=O)CCCC(=O)NCCCCCCCC,-0.4,-1.7,/,25.7%,88.6,
Cc1ccc(N=Cc2c(O)n(-c3ccc4c(c3)OCO4)c(=O)c3ccccc23)cc1,4.1,8.3,5.5,63.5%,85.0,
O=C(CSc1nc2scc(-c3ccccc3)c2c(=O)[nH]1)N1CCOCC1,/,2.8,/,/,2.5,
CCOC(=O)CSc1nc2c(sc(=S)n2-c2ccc(CC)cc2)c(=O)[nH]1,/,-1.4,/,/,2.8,
COc1ccc(S(=O)(=O)NCC2CCCN(C(=O)CNC(C)=O)C2)cc1 (stereo unspecified),-0.9,0.8,/,-5.5%,-2.5,
CCOc1cccc2cc(C(=O)Nc3ccccc3-c3ccccc3)c(=O)oc12,6.0,-1.5,-7.0,-0.8%,-2.3,
C[C@H](CCC(=O)NCC(=O)O)[C@H]1CC[C@H]2[C@@H]3[C@H](O)C[C@@H]4C[C@H](O)CC[C@]4(C)[C@H]3C[C@H](O)[C@]12C,/,1.6&0.3,/,/,-1.4&-3.8&-2.0,
O=C(Nc1ccccn1)c1ccc(S(=O)(=O)N2CCCCCC2)cc1,/,1.0,/,/,-4.1,
O=C(CSc1ncnc2scc(-c3ccc(F)cc3)c12)c1ccc2c(c1)OCCO2,11.0,5.6,-11.2,-0.7%,5.2,
Cc1cccnc1NC(=O)c1ccc(S(=O)(=O)N2CCCCC2)cc1,/,2.4,/,/,-1.2,
COc1ccccc1N1C(=O)c2ccccc2NC1c1ccc(O)cc1 (stereo unspecified),/,-0.1,/,/,7.1,
CN1CCN(C(=O)CSc2nc(-c3cccs3)ccc2C#N)CC1,6.9,0.2,-4.7,2.2%,-17.0,
CC(NC(=O)Cc1ccsc1)c1ccc(S(N)(=O)=O)cc1 (stereo unspecified),6.6,-0.2,-9.3,8.5%,-10.3,
CCOC(=O)N1CCN(CC(=O)c2c[nH]c3ccc(F)cc23)CC1,3.8,/,-47.0,-11.0%,/,
O=C(N/N=C/c1cccs1)C(=O)Nc1cccc(Cl)c1,-3.9,0.1,/,?,76.2,

# Ordered by molecular weight (lowest first): 3 of the compounds above.
SMILES,Arbovirus inh,RecA splice inh,YopH PTP inh,Mtb H37Rv,Mtb betalactam,others
COC(=O)c1cc(/C=C/c2ccccc2)on1,4.7,1.6,-33.6,1.33µM*,96.5,
C=CCOc1ccc(C=Nc2ccc(C)c(Cl)c2)c(O)c1,-3.9,0.2,-24.0,?,87.9,
CCOc1ccc(-c2cc(C(=O)NN3CCN(C)CC3)c3cc(Cl)ccc3n2)cc1,-2.3,-3.9,-17.6,18.7%,-0.1,

# Next section:
SMILES,Arbovirus inh,RecA splice inh,YopH PTP inh,Mtb H37Rv,Mtb betalactam,others
CCOC(=O)C(C)C1(O)c2ccccc2-c2ncccc21 (stereo unspecified),-1.0,-1.4,-23.6,-6.2%,-0.2,
CC(CC(F)(F)F)N1CCC(n2nccc2NC(=O)CCCc2ccccc2)CC1 (stereo unspecified),/,3.0,/,/,?,
O=C(c1ccc2c(c1)OCO2)C1CCCN(C(=O)Nc2ccc(F)cc2F)C1 (stereo unspecified),-0.8,1.8,/,-1.4%,-5.3,
O=C(COc1ccccc1)N1CCN(Cc2c[nH]c3ccccc23)CC1,14.1,0.5,-9.4,-4.1%,-3.4,
CCOC(=O)C(NCCc1ccc(F)cc1)(NC(=O)CC)C(F)(F)F (stereo unspecified),4.9,0.7,-27.2,5.2%,-0.8,
Cc1nc2ccc(C(=O)Nc3ccccc3Cl)cc2s1,/,-1.4,/,/,4.3,
COc1cccc(NC(=O)CN(C)CC(=O)Nc2cccc(C(F)(F)F)c2)c1,/,-0.8,/,/,3.3,
C=CCC(=O)OCC(=O)Nc1ccc(Oc2ccccc2)cc1,-3.2,/,-35.1,/,/,Arbovirus inh repeat=-0.1
Cc1c(Cl)cccc1N(CC(=O)N1CCCCCC1)S(C)(=O)=O,4.0,-2.6,-36.8,-2.1%,-5.1,
COCCNC(=O)CN(CCc1ccccc1)S(=O)(=O)c1ccc(OC)cc1,1.4,-1.6,-11.8,-3.2%,-14.8,
CCn1cc(CNCc2ccc(OCC(O)CN(C)Cc3ccccc3)cc2)cn1 (stereo unspecified),-20.6,-1.3,/,0.5%,-8.7,
COc1cccc(-n2c(Cc3cc(=O)[nH]c(=O)[nH]3)nnc2SCC(=O)N2CCCC2)c1,1.8,9.5,-43.6,-3.7%,0.3,
O=C(O)c1cccc(NC(=S)NC(=O)c2ccncc2)c1,11.8,-0.8,/,5.4%,2.7,
